Screening data deposited in PubChem by Broad Institute.
AF4-AF9 inh: inhibitors of human MLL-AF4/AF9 interaction; P42568; AlphaScreen, biotin-AF4 peptide binding to FLAG-AF9; 0.47% of 350,000 active; inhibition, % at 10 µM;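 active means every replicate reaching a set inhibition limit, whatever the replicate mean, cut at about 25% in these data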;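 further: 0% = plate neutral control median and 100% = total signal loss; the record names both 10 and 1 µM as test concentration; the first replicate is given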
Target sequence (P42568 whole entry, looked up): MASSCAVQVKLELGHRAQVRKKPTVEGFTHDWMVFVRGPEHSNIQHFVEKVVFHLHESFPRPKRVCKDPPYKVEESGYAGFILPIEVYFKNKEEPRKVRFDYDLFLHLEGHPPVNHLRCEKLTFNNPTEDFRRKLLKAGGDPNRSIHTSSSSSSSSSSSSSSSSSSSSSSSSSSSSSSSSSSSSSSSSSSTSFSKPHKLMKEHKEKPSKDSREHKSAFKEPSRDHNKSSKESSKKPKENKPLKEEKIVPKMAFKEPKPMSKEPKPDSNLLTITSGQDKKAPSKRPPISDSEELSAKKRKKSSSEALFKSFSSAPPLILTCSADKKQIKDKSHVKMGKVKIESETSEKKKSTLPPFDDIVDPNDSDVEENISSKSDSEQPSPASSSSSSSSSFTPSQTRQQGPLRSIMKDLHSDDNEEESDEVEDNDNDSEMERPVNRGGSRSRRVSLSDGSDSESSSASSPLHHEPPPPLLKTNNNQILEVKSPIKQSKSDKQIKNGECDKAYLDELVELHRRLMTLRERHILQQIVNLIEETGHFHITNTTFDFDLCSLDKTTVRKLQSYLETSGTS
* hit, by the source's call. Some of the compounds tested; the hit share may differ from the screen's.

SMILES | AF4-AF9 inh
Cc1ccccc1S(=O)(=O)N1C[C@@H](O)COC[C@@H]2O[C@H](CC(=O)NCCc3ccccc3)CC[C@H]21 | -0.1
CC=Cc1ccc2n(c1=O)C[C@@H]1[C@@H](CO)[C@H](C(=O)NCCc3cn(C)cn3)N(C(=O)C3CCCC3)[C@H]21 (mixture of isomers) | -4.4
O=C(C[C@H]1CC[C@@H](NC(=O)Cc2ccccn2)[C@@H](CO)O1)NCCCN1CCOCC1 | -2.1
CN(C)c1ccc(C=NNC(=O)c2cccnc2)cc1 | 1.2
C[C@@H]1CN([C@@H](C)CO)S(=O)(=O)c2ccc(C3=CCCC3)cc2O[C@@H]1CN(C)CC1CCOCC1 | -2.4
Cn1cnc(S(=O)(=O)N2CCCCN3[C@H](CO)[C@H](c4ccc(C#CC5CCCC5)cc4)[C@H]3C2)c1 | 1.8
CCN1[C@@H]2c3ccc(-c4ccccc4)c(=O)n3C[C@@H]2[C@@H](CO)[C@@H]1C(=O)NCC1CC1 | -1.0
COc1ccccc1-c1cn(CC[C@H]2CC[C@@H](NC(=O)C3CCOCC3)[C@@H](CO)O2)nn1 | -0.9
CCC(=O)Nc1ccc2c(c1)OC[C@H](C)N(C(=O)NC(C)C)C[C@@H](C)[C@H](OC)CN(C)C2=O | -2.3
O=C(NCc1ccccc1)[C@@H]1CCCN1C(=O)[C@H]1CCCN1C(=O)C1CCCCC1 | -6.0
CN(C)CCCNC(=O)C[C@@H]1CC[C@H]2[C@@H](COc3ccc(NC(=O)c4ccccc4F)cc3C(=O)N2C)O1 | -2.1
Cc1ccc(S(=O)(=O)N[C@@H]2C=C[C@@H](CC(=O)NC3CCCCC3)O[C@@H]2CO)cc1 | -1.0
CCc1nc(N2[C@H](C#N)[C@@H](c3ccccc3-c3ccccc3C)[C@@H]2CO)sc1C | 2.6
Cc1noc(C)c1S(=O)(=O)N(C)C[C@@H]1Oc2ccc(NS(C)(=O)=O)cc2CC(=O)N([C@H](C)CO)C[C@H]1C | -0.9
CC(=O)N(C)C[C@@H]1Oc2ncc(C#Cc3ccccc3F)cc2C(=O)N([C@H](C)CO)C[C@H]1C | -0.1
C[C@H]1CN([C@@H](C)CO)C(=O)Cc2cc(NS(=O)(=O)c3cccs3)ccc2O[C@@H]1CN(C)C(=O)Nc1ccccc1 | -2.2
CCC[C@H]1CN(c2ccccc2)C(=O)[C@@H]1CC(=O)Nc1ccccc1 | -1.9
COc1ccc(NC(=O)C2(C)Cc3c(-c4ccc(C(N)=O)cc4)ccnc3O2)cn1 (centres undefined) | 0.7
O=S(=O)(NCC[C@@H]1CC[C@@H](NS(=O)(=O)c2ccccc2Cl)[C@@H](CO)O1)c1ccc(Cl)cc1 | -1.1
COc1cccc(-c2ncn(CCc3ccccc3OC)c2C(C)C)c1 | 15
C[C@@H]1CN([C@@H](C)CO)C(=O)Cc2cc(NC(=O)c3ccncc3)ccc2O[C@@H]1CN(C)CC1CCCCC1 | -5.6
CN(C)CC(=O)Nc1ccc2c(c1)[C@H]1C[C@H](CC(=O)NCC3CC3)O[C@@H](CO)[C@H]1O2 | -2.3
CCC(=O)N1C[C@@H](C)[C@H](OC)CN(C)C(=O)c2cc(NC(=O)COC)ccc2OC[C@H]1C | -1.7
COc1cccc(NC(=O)Nc2ccc3c(c2)C(=O)N(C)[C@@H]2CC[C@H](CC(=O)NCCc4ccccc4)O[C@H]2CO3)c1 | 6.1
Cc1noc(C)c1NC(=O)N[C@H]1C=C[C@H](CC(=O)NCc2ccc(Cl)c(Cl)c2)O[C@H]1CO | 2.9
CN1C(=O)c2cc(NC(=O)c3cscn3)ccc2OC[C@H]2O[C@@H](CC(=O)N3CCOCC3)CC[C@H]21 | -1.5
COc1ccc(S(=O)(=O)N2CCCCC2)cc1NC(=O)C1CC1(Cl)Cl (centres undefined) | 1.4
O=C(C[C@@H]1CC[C@H](NC(=O)C2CC2)[C@H](CO)O1)NCc1ccncc1 | -0.7
C[C@@H]1CCCCO[C@@H](CN(C)C(=O)c2ccccc2)[C@@H](C)CN([C@@H](C)CO)C(=O)c2cc(NS(=O)(=O)c3cn(C)cn3)ccc2O1 | -2.4
COCC(=O)NC[C@H]1[C@H](c2ccc(-c3ccccc3)cc2)[C@@H](CO)N1C(C)=O | 0.7
COc1ccccc1CN1[C@H](CO)[C@H](c2ccccc2)C12CN(C(=O)c1ccccn1)C2 | -0.5
CO[C@H]1CN(C)C(=O)c2ccc(NC(=O)c3cnccn3)cc2OC[C@H](C)N(CCc2ccccc2)C[C@H]1C | 5.3
C[C@@H]1CCCCO[C@H](CN(C)CC2CCCCC2)[C@H](C)CN([C@@H](C)CO)C(=O)c2cc(NS(=O)(=O)c3ccc(F)cc3)ccc2O1 | 6.9
CC(C)CC#Cc1cnc2c(c1)C(=O)N([C@H](C)CO)C[C@@H](C)[C@H](CN(C)C(=O)Nc1ccccc1F)O2 | -1.4
C[C@@H]1CN([C@@H](C)CO)S(=O)(=O)c2ccc(C#Cc3ccccc3)cc2O[C@@H]1CN(C)S(=O)(=O)c1cn(C)cn1 | -3.6
Cc1ccccc1-c1ccc([C@H]2[C@@H](CO)N3CCCCN(CC4CC4)C[C@@H]23)cc1 | 11
C[C@@H]1CN([C@@H](C)CO)C(=O)c2cc(N(C)C)ccc2O[C@H]1CN(C)C(=O)Nc1ccc(F)cc1 | 0.4
CSc1ccc(-c2cccc3nncn23)cc1 | -2.5
N#C[C@H]1[C@H](c2ccc(-c3cccc(F)c3)cc2)[C@@H](CO)N1S(=O)(=O)c1cccc(F)c1 | 0.1
C[C@@H]1CN([C@@H](C)CO)C(=O)c2cc(C#CCN(C)C)cnc2O[C@@H]1CN(C)C(=O)NC1CCCC1 | -2.4
COc1ccccc1CCC(=O)Nc1ccc2c(c1)c(=O)n(C)n2C | 0.2
CCOC(=O)c1ccc(NC(=O)c2nc[nH]c2C(=O)NC[C@H](C)O)cc1 | -0.3
Cc1cnc(C(=O)Nc2c(-c3ccccc3)[nH][nH]c2=O)cn1 | 0.0
CN(C)C(=O)[C@H]1[C@H](CO)[C@H]2Cn3c(ccc(-c4ccncc4)c3=O)[C@H]2N1Cc1ccccc1 | -0.5
C[C@@H]1CN([C@@H](C)CO)C(=O)c2cc(NC(=O)CCN3CCOCC3)ccc2O[C@H]1CN(C)C(=O)NC1CCCCC1 | -3.3
COc1ccc(NC(=O)N(C)C[C@@H]2OCCCC[C@H](C)Oc3ccc(NC(=O)Nc4ccc5c(c4)OCO5)cc3C(=O)N([C@@H](C)CO)C[C@@H]2C)cc1 | 4.7
CCNC(=O)C[C@@H]1CC[C@H]2[C@@H](COc3ccc(NC(=O)Nc4ccc(F)cc4)cc3C(=O)N2C)O1 | -6.9
COCCNC(=O)C[C@H]1CC[C@@H]2[C@@H](COc3ccc(NC(=O)COC)cc3C(=O)N2C)O1 | -1.1
N#C[C@H]1[C@H](c2ccc(-c3cccc(F)c3)cc2)[C@@H](CO)N1C(=O)c1cccnc1 | -17
CC(C)NC(=O)N[C@H]1CC[C@H](CCNS(=O)(=O)c2ccc(F)cc2)O[C@@H]1CO | -4.2
Continuation:
SMILES | AF4-AF9 inh
C[C@@H]1CN([C@H](C)CO)C(=O)c2cccc(NS(=O)(=O)c3ccccc3)c2O[C@H]1CN(C)S(=O)(=O)c1cn(C)cn1 | -13
O=C(CN1CCOCC1)N1CCCCN2[C@H](CO)[C@H](c3ccc(-c4ccccc4F)cc3)[C@H]2C1 | -3.1
C[C@@H]1CN([C@@H](C)CO)C(=O)Cc2cc(NS(=O)(=O)c3cccs3)ccc2O[C@H]1CN(C)Cc1ccc(Cl)c(Cl)c1 | 6.2
CC(C)CC#Cc1cnc2c(c1)C(=O)N([C@H](C)CO)C[C@H](C)[C@@H](CN(C)C(=O)Nc1cc(F)ccc1F)O2 | 2.3
Cc1noc(C)c1NC(=O)N[C@H]1CC[C@@H](CCNC(=O)C2CCOCC2)O[C@@H]1CO | -19
C[C@H](CO)N1C[C@H](C)[C@H](CN(C)CC2CC2)Oc2ccc(NC(=O)Nc3ccccc3)cc2CC1=O | 1.6
Cc1cccc(C)c1NC(=O)C1c2ccccc2OCC(=O)N1Cc1ccc2c(c1)OCO2 (centres undefined) | 0.2
C[C@H]1CCCCO[C@H](CN(C)Cc2ccncc2)[C@@H](C)CN([C@@H](C)CO)C(=O)c2cc(NC(=O)C3CCCCC3)ccc2O1 | -1.3
Cc1noc(C)c1NC(=O)Nc1ccc2c(c1)CC(=O)N([C@H](C)CO)C[C@H](C)[C@H](CN(C)Cc1ccc3c(c1)OCO3)O2 | -2.4
CCCN(C)C[C@@H]1Oc2cc(C#CC(C)(C)O)ccc2S(=O)(=O)N([C@@H](C)CO)C[C@@H]1C | -5.2

Exported as a markdown table: entries from further up.
| mol | AF4-AF9 inh |
| --- | --- |
| C[C@@H]1CN([C@H](C)CO)C(=O)c2cccc(NS(=O)(=O)c3ccccc3)c2O[C@H]1CN(C)S(=O)(=O)c1cn(C)cn1 | -13 |
| O=C(CN1CCOCC1)N1CCCCN2[C@H](CO)[C@H](c3ccc(-c4ccccc4F)cc3)[C@H]2C1 | -3.1 |
| C[C@@H]1CN([C@@H](C)CO)C(=O)Cc2cc(NS(=O)(=O)c3cccs3)ccc2O[C@H]1CN(C)Cc1ccc(Cl)c(Cl)c1 | 6.2 |
| CC(C)CC#Cc1cnc2c(c1)C(=O)N([C@H](C)CO)C[C@H](C)[C@@H](CN(C)C(=O)Nc1cc(F)ccc1F)O2 | 2.3 |
| Cc1noc(C)c1NC(=O)N[C@H]1CC[C@@H](CCNC(=O)C2CCOCC2)O[C@@H]1CO | -19 |
| C[C@H](CO)N1C[C@H](C)[C@H](CN(C)CC2CC2)Oc2ccc(NC(=O)Nc3ccccc3)cc2CC1=O | 1.6 |
| Cc1cccc(C)c1NC(=O)C1c2ccccc2OCC(=O)N1Cc1ccc2c(c1)OCO2 (centres undefined) | 0.2 |

More compounds follow.
SMILES | AF4-AF9 inh
O=C(C[C@H]1C=C[C@@H](NC(=O)Nc2ccc(F)cc2)[C@@H](CO)O1)NCc1ccccn1 | 1.3
CCCNC(=O)N(C)C[C@@H]1Oc2cc(C#C[C@@H](C)O)ccc2S(=O)(=O)N([C@H](C)CO)C[C@@H]1C | -1.9
C[C@@H]1CCCCO[C@@H](CN(C)C(=O)NC2CCCCC2)[C@H](C)CN([C@H](C)CO)C(=O)c2cc(NC(=O)CCC(F)(F)F)ccc2O1 | 0.2
COc1ccc2c3c(n(C)c2c1)[C@H](CO)N(Cc1ccccn1)CC31CCN(C(=O)NC(C)C)CC1 | -3.1
CCCNC(=O)c1cc(C2CCCCN2C(=O)c2ccc3ccccc3c2)on1 (centres undefined) | -3.6
CC(C)C[C@@H](CN1CCC[C@@H]1CN1C(=S)NC[C@@H]1Cc1ccc(O)cc1)N1C[C@H](Cc2ccc(O)cc2)N(CC2CCCCCC2)C1=S | 7.3
CO[C@@H]1CN(C)C(=O)c2cc(NC(=O)Nc3ccccc3Cl)ccc2OC[C@H](C)NC[C@H]1C | 1.1
CC(C)c1nc(CNC(=O)CC2C(=O)NCCN2Cc2ccccc2)cs1 (centres undefined) | -1.5
COc1ccccc1S(=O)(=O)N(C)C[C@H]1Oc2cc(C#CCC3CCCC3)ccc2S(=O)(=O)N([C@H](C)CO)C[C@@H]1C | 2.0
C/C=C/c1cnc2c(c1)C(=O)N([C@H](C)CO)C[C@H](C)[C@H](CN(C)C(=O)c1cnccn1)O2 | -6.7
CCC(=O)Nc1ccc2c(c1)OC[C@H](C)N(CCC(F)(F)F)C[C@H](C)[C@@H](OC)CN(C)C2=O | 0.2
COCC(=O)Nc1ccc2c(c1)OC[C@@H](C)N(C(=O)c1ccccc1F)C[C@@H](C)[C@@H](OC)CN(C)C2=O | -1.3
C[C@@H]1CN([C@H](C)CO)C(=O)c2cccc(NS(=O)(=O)c3cn(C)cn3)c2O[C@@H]1CN(C)Cc1ccncc1 | -0.7
CC(C)NC(=O)N(C)C[C@H]1Oc2ccc(NC(=O)CCCCCC(=O)Nc3ccccc3N)cc2CC(=O)N([C@H](C)CO)C[C@@H]1C | -2.3
CCCN(C)C[C@@H]1Oc2cc(C#Cc3ccncc3)ccc2S(=O)(=O)N([C@H](C)CO)C[C@@H]1C | -0.8
C[C@@H]1CN([C@H](C)CO)C(=O)c2ccccc2-c2ccccc2CO[C@H]1CN(C)S(=O)(=O)c1cccc(F)c1 | 2.6
COc1cc(CN2C(=O)C(C)ON=C2c2ncccc2C)cc(OC)c1 (centres undefined) | -10
COc1cccc(S(=O)(=O)Nc2ccc3c(c2)[C@H]2C[C@H](CC(=O)N(C)C)O[C@@H](CO)[C@H]2O3)c1 | -1.7
Cc1noc(C)c1S(=O)(=O)Nc1ccc2c(c1)C(=O)N([C@@H](C)CO)C[C@@H](C)[C@@H](CN(C)S(=O)(=O)c1ccc(F)cc1)OCCCC[C@H](C)O2 | -0.4
C[C@@H]1CN([C@@H](C)CO)C(=O)c2cc(NC(=O)c3ccncc3)ccc2O[C@@H](C)CCCCO[C@H]1CN(C)S(=O)(=O)c1ccc(F)cc1 | 0.3
C[C@@H]1CN([C@H](C)CO)C(=O)c2cc(NC(=O)C3CCCCC3)ccc2O[C@@H](C)CCCCO[C@@H]1CN(C)S(=O)(=O)c1ccccc1 | -2.1
O=C(NCc1cccs1)c1ccc2sc(COCCO)nc2c1 | -4.2
C[C@@H]1CN([C@H](C)CO)C(=O)c2cc(NC(=O)C3CC3)ccc2O[C@H]1CN(C)Cc1ccccc1 | -1.2
O=C(N[C@@H]1CC[C@@H](CCn2cc(-c3ccccc3)nn2)O[C@H]1CO)c1ccccc1F | -1.3
Cc1noc(C)c1NC(=O)Nc1ccc2c(c1)C(=O)N([C@@H](C)CO)C[C@@H](C)[C@H](CN(C)C(=O)Nc1c(C)noc1C)OCCCC[C@@H](C)O2 | -3.3
CCCC#Cc1ccc2c(c1)O[C@H](CN(C)Cc1ccncc1)[C@H](C)CN([C@@H](C)CO)S2(=O)=O | 5.0

Some of these compounds in order of heavy-atom count, largest number first:
SMILES | AF4-AF9 inh
Cc1noc(C)c1NC(=O)Nc1ccc2c(c1)C(=O)N([C@@H](C)CO)C[C@@H](C)[C@H](CN(C)C(=O)Nc1c(C)noc1C)OCCCC[C@@H](C)O2 | -3.3
CCCC#Cc1ccc2c(c1)O[C@H](CN(C)Cc1ccncc1)[C@H](C)CN([C@@H](C)CO)S2(=O)=O | 5.0
O=C(N[C@@H]1CC[C@@H](CCn2cc(-c3ccccc3)nn2)O[C@H]1CO)c1ccccc1F | -1.3
